WNV NS2B-NS3 inh – inhibitors of WNV NS2B-NS3 protease, primary screen, biochemical, fluorogenic substrate | Genome polyprotein (West Nile virus), P06935 | fluorogenic substrate Ex360/Em465; hits give low values | z-score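 (tested at a level between 10 and 100 µM)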 | actives 0.18% (n = 65,000) | AID 577, 2007;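 active = z-score at -3 or under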;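 also: score is relative to mean and spread of the compound wells of a plate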
Target sequence (P06935 1371-1501 limits assumed): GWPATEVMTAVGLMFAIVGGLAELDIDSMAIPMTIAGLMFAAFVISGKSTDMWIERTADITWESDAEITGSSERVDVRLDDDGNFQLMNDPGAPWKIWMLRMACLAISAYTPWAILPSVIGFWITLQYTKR
Target sequence (P06935 1502-1679 limits assumed): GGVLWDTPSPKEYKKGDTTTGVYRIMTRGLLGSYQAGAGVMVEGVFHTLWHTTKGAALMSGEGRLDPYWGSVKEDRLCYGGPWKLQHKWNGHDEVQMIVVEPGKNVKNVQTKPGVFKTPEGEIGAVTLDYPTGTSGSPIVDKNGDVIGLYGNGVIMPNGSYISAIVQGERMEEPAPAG
MT1-MMP reporter – inhibitors of MT1-MMP promoter transcription, cell-based, luciferase reporter, luminescence (AID 618). MT1-MMP promoter luciferase reporter cells, luminescence. calls from a first round at 10 µM; hits with a dose series show EC50 in µM. actives 0.62% (n = 87,000);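 active = over half of the reporter light lost at 10 µM or EC50 under 50 µM; inactive = the rest and hits that failed the dose series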;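 also: actives suppress MT1-MMP promoter-driven transcription so potencies describe inhibitors; HT1080 fibrosarcoma cells; overnight exposure; toxic or luciferase-blocking compounds were not removed from the actives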
Hsc70 – Hsc70 inhibitors, probe displacement, primary screen, biochemical, fluorescence polarization (AID 568); Heat shock cognate 71 kDa protein (Homo sapiens); Hsc70 fluorescence polarization, probe displacement; higher % means a stronger effect; strong numbers were not always called active; one-dose displacement, % at 20 µM; IC50 in µM for titrated hits; 83,000 tested, under 10 active;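 active = displacement above 50% without optical interference and an IC50 on retest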;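 also: ATPase domain with a fluorescein-tagged ATP probe; 0% = vehicle and 100% = excess ADP; read after one hour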
* = called active by the depositor; i = inactive; / = not tested or not shown. Not all compounds are listed, so the mix of outcomes need not match the whole.

SMILES	WNV NS2B-NS3 inh	MT1-MMP reporter	Hsc70
CC(C)C(OC(=O)CN1C(=O)COc2ccccc21)C(=O)NC1CCCC1 (stereo unspecified)	-1.04	i	2.5%
O=C(Nc1ccccc1)c1ccc(-c2ccc(Br)cc2)o1	/	i	-10.2%
O=C(CSc1nc2nc[nH]c2c(=O)[nH]1)NC1CCCCC1	-0.17	i	6.3%
Cc1cc(NC(=O)c2ccc(NC(=O)C(C)Oc3ccccc3)cc2)no1 (stereo unspecified)	-0.82	i	2.4%
CCOC(=O)Cn1cnc2c(nnn2Cc2ccc(Cl)cc2)c1=O	-0.36	i	-8.9%
CCC1(CC)NC(=O)NC1=O	-1.78	i	2.7%
COC(=O)[C@H](C)NC(=O)Nc1ccc(OC)cc1OC	-0.67	i	-8.1%
Cc1cccc(Cn2cnc3c(nnn3Cc3ccc(F)cc3)c2=O)c1	-1.1	i	-9.9%
CN1CCN(C(=O)CC23CC4CC(CC(C4)C2)C3)CC1	-0.87	i	-4.4%
CCOC(=O)c1[nH]c(C)c(C(=O)NC(C)CC)c1C (stereo unspecified)	-1.29	i	6.0%
O=C(CSc1ncc(-c2ccccc2)nn1)NCc1ccco1	-0.01	i	5.7%
CCN(CC)CCNC(=O)c1ccc(Cl)c(S(=O)(=O)Nc2ccccc2OC)c1	/	i	2.6%

The last 4 records of the part before open the next one:
SMILES	WNV NS2B-NS3 inh	MT1-MMP reporter	Hsc70
CN1CCN(C(=O)CC23CC4CC(CC(C4)C2)C3)CC1	-0.87	i	-4.4%
CCOC(=O)c1[nH]c(C)c(C(=O)NC(C)CC)c1C (stereo unspecified)	-1.29	i	6.0%
O=C(CSc1ncc(-c2ccccc2)nn1)NCc1ccco1	-0.01	i	5.7%
CCN(CC)CCNC(=O)c1ccc(Cl)c(S(=O)(=O)Nc2ccccc2OC)c1	/	i	2.6%
O=C1CCCc2c1cc(C(=O)NCCCN1CCOCC1)c(=O)n2-c1ccc(Cl)cc1	0.44	i	-4.1%
CCCOC(=O)CSC1=C(C#N)C(c2ccccc2OCC)C(C#N)C(=O)N1 (stereo unspecified)	0.11	i	7.9%
COC(=O)c1[nH]c2cccc(C)c2c1NC(=O)CN1CCN(C(=O)c2ccco2)CC1	-0.53	i	-4.1%
Cc1ccc(OCC(=O)Nc2ccc(N(C)C)cc2)cc1	-1	i	-5.1%
CC(Oc1ccc(-c2ccccc2)cc1)C(=O)N1CCOCC1 (stereo unspecified)	0.07	i	5.7%
CCN(C(=O)CSc1nc(-c2ccccc2)c(-c2ccccc2)[nH]1)C1CCS(=O)(=O)C1 (stereo unspecified)	/	i	-1.4%
CCc1ccc(NC(=O)CN(c2cccc(C)c2)S(C)(=O)=O)cc1	/	i	-3.7%
Brc1ccc(CSc2nnc(-c3cnccn3)n2Cc2ccco2)cc1	-0.16	i	-0.6%
CCC(=O)Nc1sccc1C(=O)OC	-0.69	i	-4.1%
COc1ccc(C(=O)CSc2n[nH]c(-c3ccco3)n2)cc1	0.39	i	-2.7%
O=C(NCCN1CCCCC1)c1cc2ccccc2[nH]1	0.7	i	-1.3%
COC(=O)C(C(C)=O)C1=C/C(=N\S(=O)(=O)c2ccc(C)cc2)c2ccccc2C1=O (stereo unspecified)	/	i	-11.7%
CCCN1C(=O)c2ccc(C(=O)Nc3nccs3)cc2C1=O	-0.82	i	1.9%
COC(=O)c1ccccc1N=C(SC)N(C)C	-0.26	i	-0.8%
CCn1c(SCC(=O)NCc2ccco2)nnc1-c1c[nH]c2ccccc12	/	i	-0.7%
Cc1oc(-c2ccc(Cl)cc2)nc1CN1CCCC(C(=O)NCCCN2CCOCC2)C1 (stereo unspecified)	-0.21	i	5.6%
CCOC(=O)c1ccc(NC(=O)Cn2nnc(-c3ccc(C)cc3)n2)cc1	-0.1	i	-4.5%
Cc1nc(Nc2nc3ccccc3o2)nc2c1CCC2	-0.45	3.09µM*	-1.3%
COc1ccc(-c2nnc(SCC(=O)NCc3cccs3)n2C(C)C)cc1	/	i	-1.4%
CCCCN(CC)CCCNC(=O)Cn1nc(Cc2ccncc2)c2ccccc2c1=O	0.22	i	1.4%
Cc1ccc2nsnc2c1S(=O)(=O)NCCc1c(C)[nH]c2ccc(F)cc12	/	i	-4.7%
COC(=O)Nc1sc2c(c1C(=O)NCc1ccco1)CCCC2	-0.55	i	0.9%
O=C(CCN1C(=O)c2ccccc2C1=O)Nc1ccc(F)cc1	0.49	i	1.7%
CN(C)c1ccnc(NCc2ccccc2)c1C#N	-0.79	i	2.9%
O=C(Nc1nnc(COc2ccc(Cl)cc2)s1)C1CCCO1 (stereo unspecified)	-0.6	i	6.1%
CCC(=O)n1nc(-c2ccco2)nc1SCc1ccccc1	0.43	i	0.9%
COc1ccc(N2CCN(c3nc4c(c(=O)[nH]c(=O)n4C)n3CCCc3ccccc3)CC2)cc1	0.67	i	2.5%
CC(NC(=O)NCCCn1ccnc1)(C(F)(F)F)C(F)(F)F	-0.53	i	4.1%
Cc1ccc(C(=O)Nc2cc(=O)n(C)c(=O)n2C)cc1C	-1.04	i	2.2%
CC(C)(C)n1nnnc1CN1CCN(C2CCCC2)CC1	0.02	i	-0.6%
Cn1c(C(=O)N2CCN(Cc3ccc4c(c3)OCO4)CC2)cc2c(=O)n(C)c3ccccc3c21	2.25	i	0.0%
Cc1ccc(N2C(=O)N(CC(=O)N3CCCc4ccccc43)C(=O)C2C)cc1 (stereo unspecified)	/	i	-8.9%
COc1ccccc1NC(=O)CCc1c(C)[nH]c(=O)c(C#N)c1C	1.04	i	3.2%
CCn1c(SCC(=O)N2CCN(S(=O)(=O)c3ccccc3)CC2)nnc1-c1cccs1	-0.68	i	2.8%
NC/C(=N\O)c1ccc(Cl)cc1Cl	-0.4	i	-5.5%
CC(C)NC(=O)CCCn1c(=S)[nH]c2cc3c(cc2c1=O)OCO3	-0.4	i	2.2%

Gathered by group, those above with two or more sulfur atoms (four)
SMILES	WNV NS2B-NS3 inh	MT1-MMP reporter	Hsc70
CCN(C(=O)CSc1nc(-c2ccccc2)c(-c2ccccc2)[nH]1)C1CCS(=O)(=O)C1 (stereo unspecified)	/	i	-1.4%
COc1ccc(-c2nnc(SCC(=O)NCc3cccs3)n2C(C)C)cc1	/	i	-1.4%
Cc1ccc2nsnc2c1S(=O)(=O)NCCc1c(C)[nH]c2ccc(F)cc12	/	i	-4.7%
CCn1c(SCC(=O)N2CCN(S(=O)(=O)c3ccccc3)CC2)nnc1-c1cccs1	-0.68	i	2.8%

New compounds follow:
SMILES	WNV NS2B-NS3 inh	MT1-MMP reporter	Hsc70
Cc1nn(-c2ccc(Cl)cc2)c2sc(C(=O)N3CCN(c4ccccn4)CC3)cc12	-0.14	i	0.1%
CC(=O)C1=C(c2ccccc2)NC(=O)NC1c1ccccc1OCC(=O)Nc1ccccc1 (stereo unspecified)	/	i	-2.6%
CC(=O)Nc1ccc(S(=O)(=O)N2CCC(N(C)CCC(C)C)CC2)cc1	-0.5	i	-0.3%
Cc1nnc(SCCn2c(N3CCN(c4ccccc4)CC3)nc3c2c(=O)n(C)c(=O)n3C)s1	-1.27	i	-3.7%
COc1ccc(/C=C/c2ccncc2)cc1	/	i	1.7%
CC(NC(=O)CSc1nnc(COc2ccccc2)o1)c1ccccc1 (stereo unspecified)	0.36	i	0.2%
CCOc1ccccc1NC(=O)N1CCC(c2nc3ccc(C)cc3[nH]2)CC1	-0.13	i	5.0%
CCCN1CCN(C(c2cc3cc(OCC)ccc3[nH]c2=O)c2nnnn2C2CCCCC2)CC1 (stereo unspecified)	0.89	i	7.3%
O=C(Cn1ncc2c1-c1ccccc1OC2)N1CCN(Cc2ccc3c(c2)OCO3)CC1	0.07	i	0.9%
COCCNC(=O)c1c(N)n(-c2cccc(C)c2)c2nc3ccccc3nc12	0.46	i	6.3%
O=C(CCCC1=NS(=O)(=O)c2ccccc2N1)N1CCN(c2ccc(Cl)cc2)CC1	-0.42	i	-1.0%
COc1ccc(-c2nnc(SCC(=O)Nc3ncc(C)s3)n2-c2ccccc2)cc1OC	0.92	i	-3.2%
CCn1c(=O)cc(OCC(=O)NCc2cccnc2)c2ccccc21	-0.29	i	-1.7%
COc1cccc(-n2c(C)nc3c(cnn3-c3ccc(C)cc3)c2=O)c1	-0.43	i	2.9%
Cc1cccc(OCC(=O)Nc2ccc3c(c2)nc(CCN2CCN(C)CC2)n3C)c1	-1.22	i	-3.1%
Cc1c(NC(=O)c2cc3ccccc3o2)c(=O)n(-c2ccccc2)n1C	/	i	-0.2%
CCN(CC(O)Cn1c2ccccc2c2ccccc21)S(=O)(=O)c1ccc(F)cc1 (stereo unspecified)	/	i	2.8%
Nn1c(COc2cccc(Br)c2)nnc1SCC(=O)N1CCc2ccccc2C1	-0.79	i	3.2%
Cc1ccc(-c2nc3ccccn3c2NCc2ccc3c(c2)OCO3)cc1	/	i	-3.1%
COc1cc(-c2cc(C(=O)O)c3c(OC)c(OC)c(OC)cc3n2)ccc1O	-0.56	i	3.3%
Cn1cnnc1SCCn1c(N2CCCCC2)nc2c1c(=O)[nH]c(=O)n2C	-1.05	i	-6.9%
CCOC(=O)N1CCN(C(=O)c2ccc(-n3c(=S)[nH]c4ccccc4c3=O)cc2)CC1	-0.13	i	1.7%
N#CC1=C(N)C(C#N)(C#N)C(c2cccnc2)C2CCCC=C12 (stereo unspecified)	-0.12	i	34.2%
c1ccc(OCc2nn3c(C4CCCCC4)nnc3s2)cc1	-0.95	i	1.4%
O=C(CCNS(=O)(=O)c1cccs1)N1CCc2ccccc2C1	-0.84	i	6.6%
COc1ccc(Cl)cc1NC(=O)c1nc2nc(C)cc(C(F)F)n2n1	-0.1	i	1.5%
Cc1ccc(S(=O)(=O)N2CCCC(C(=O)NCc3ccco3)C2)cc1Cl (stereo unspecified)	/	i	6.2%
CC(CCc1ccccc1)NC(=O)c1ccco1 (stereo unspecified)	/	i	-3.6%
CC1CN(c2ncnc3c2oc2ccccc23)CC(C)O1 (stereo unspecified)	-0.09	i	-3.8%
O=C(CSc1nnnn1-c1ccccc1)Nc1ccc(N2CCOCC2)c(Cl)c1	-1.77	i	10.9%
CCOC(=O)CN1C(=O)C(O)(C2CCc3ccccc3C2=O)c2ccccc21 (stereo unspecified)	-0.09	i	-0.8%
COCC(=O)N(CCc1ccc(OC)cc1)Cc1nc2ccccc2c(=O)[nH]1	0.8	i	-1.8%
COc1ccc(S(=O)(=O)NC(C)C(=O)Nc2ccccc2C(F)(F)F)cc1 (stereo unspecified)	/	i	-4.5%
COc1ccc(CC(NC(C)=O)C(=O)NC2CCN(c3nnnn3-c3ccccc3)CC2)cc1 (stereo unspecified)	0.12	i	-9.3%
O=C(Nn1cnnc1)c1cc2c(s1)CCCC2	-0.2	i	-3.1%
Cc1ccc(-n2c(SCc3ccc(C#N)cc3)nnc2-c2ccccn2)cc1	1.54	i	-7.1%
CSCC[C@H](NC(=O)OC(C)(C)C)c1nnc(SCC(=O)N(C)C)o1	1.28	i	-1.7%
CCCCN1CC(C(=O)NCc2ccc(C)cc2)CC1=O (stereo unspecified)	/	i	0.1%
CC(=O)c1cccc(NC(=O)NC2CCCCC2)c1	-0.52	i	1.4%
CCn1c(COc2ccccc2C)nnc1SCC(=O)Nc1cc(C)on1	1.35	i	-4.1%
COc1ccc(N(CC(=O)N2CCc3ccccc32)S(=O)(=O)c2c(C)noc2C)cc1	-1.7	i	-0.3%
Cn1nc(C(=O)N2CCCC2)c2ccccc2c1=O	-1.1	i	1.7%
CC(C)(C)C(=O)Nc1cccc(-c2nnc(-c3cccc(NC(=O)C(C)(C)C)c3)o2)c1	/	i	6.0%
COc1cccc2cc(C(=O)NCC3CCCO3)c(=O)oc12 (stereo unspecified)	0.00345	i	-1.5%
Cc1cnc(NC(=O)c2ccc3c(c2)C(=O)N(Cc2ccco2)C3=O)s1	-0.94	i	4.2%
CCOC(=O)CC1C(=O)NCCN1C(=O)c1cccc(C(F)(F)F)c1 (stereo unspecified)	/	i	-0.4%
COc1ccc(-c2cc(C(F)(F)F)nc(NC3CCCC3)n2)cc1OC	-0.47	i	0.3%
O=C(O)c1cccc(S(=O)(=O)N2CCCC2)c1	1.5	i	8.5%
Cc1cccc(N(C(=O)Cn2nnc3ccccc32)C(C(=O)NCc2ccco2)c2ccncc2)c1 (stereo unspecified)	-0.33	i	-4.8%
CC(=C/C(=O)O)/C=C/c1cccs1	0.25	i	-0.2%
CCOC(=O)CCCCC(=O)c1[nH]c(=O)[nH]c1CSc1nc(C)cc(=O)[nH]1	0.41	i	-0.6%
COC(=O)C(C)Sc1nnc2n(-c3cccc(C)c3)c(=O)c3c4c(sc3n12)CCCC4 (stereo unspecified)	0.52	i	6.8%
NC(=O)CSc1nnc(-c2ccc(S(=O)(=O)N3CCCCC3)cc2)n1-c1ccccc1	/	i	4.6%
CCOc1ccc2[nH]c(=O)c(CN(CCO)C(=O)c3ccc(F)cc3)cc2c1	-0.37	i	-4.1%
CCN(CC(=O)Nc1c(C(=O)OC)[nH]c2ccc(Cl)cc12)c1ccc2c(c1)OCO2	-1.06	i	28.1%
CCOC(=O)c1cc(OCC(=O)NC(C)C(C)C)cc(C(=O)OCC)c1 (stereo unspecified)	1.24	i	3.3%

Bioassay records (PubChem BioAssay)
